Assay outcomes as filed in PubChem BioAssay.
Lassa entry inh: blocks Lassa virus binding to or entry into cells; Lassa virus pseudotype entry inhibition, cell reporter; control for the full effect not named in the record; Potency, µM (series often up to 37.9 µM), for inactives: top-dose activity change, negative = inhibition, most hits filed as inhibitors; 300,000 compounds, 1.2% hits; AID 540256; active means well fitted inhibition curve with a large enough effect; inconclusive means small, poorly fitted or top-dose-only effect, or effect the other way; inactive means flat fitted curve, though single readings scatter; tested in HEK293 cells; also: % is scaled to controls: 0 for no effect and ±100 for the full control effect; nearly all actives have a fitted effect of over 50% in size; luciferase read-out
NS1 function inh: blocks influenza NS1 protein function; AID 2326; 270,000 compounds, 0.4% hits; S. cerevisiae slowed by influenza A NS1, growth recovery by OD600; Potency, µM (top dose mostly 46.1 µM), for inactives: at the highest dose activity, positive = more growth; active means well fitted rising curve with a large enough effect; inconclusive means small, poorly fitted or top-dose-only effect; inactive means no such curve, though single readings can be large or run the other way; also: nearly all actives have a fitted effect of over 50% in size
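S. cerevisiae expressing influenza A NS1, grown in glucose, washed, then diluted 1:100 into pH 6.0 -URA galactose medium with 23 nl compound. Growth recovery read as OD600; NS1-free strain serves as control.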
SARS PLpro yeast: inhibitors of SARS-CoV papain-like protease in yeast | 330,000 compounds, 0.19% hits | S. cerevisiae expressing SARS-CoV PLpro, growth rescue; control for the full effect not named in the record | Potency, µM (series often up to 32.9 µM), without a hit: at the top dose activity, positive = growth rescue; active means well fitted rising curve with a large enough effect; inconclusive means small, poorly fitted or top-dose-only effect; inactive means no such curve, though single readings can be large or run the other way; also: 0% is about no effect; nearly all actives have a fitted effect of over 55% in size; growth read by luminescence after 48 h
Cruzain inh Det: cruzain (T. cruzi) inhibition with detergent. P25779. purified cruzain, Z-FR-AMC fluorescence, 0.01% Triton. Potency, µM, for inactives: max response, negative = inhibition, hits mostly inhibitors. 200,000 compounds, 0.43% hits;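 also: plate controls were neutral wells for no effect and buffer without enzyme for full effect; nearly all actives have a fitted effect of over 40% in size; top concentration of the series not given in the record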
Target sequence (P25779 123-467 limits assumed): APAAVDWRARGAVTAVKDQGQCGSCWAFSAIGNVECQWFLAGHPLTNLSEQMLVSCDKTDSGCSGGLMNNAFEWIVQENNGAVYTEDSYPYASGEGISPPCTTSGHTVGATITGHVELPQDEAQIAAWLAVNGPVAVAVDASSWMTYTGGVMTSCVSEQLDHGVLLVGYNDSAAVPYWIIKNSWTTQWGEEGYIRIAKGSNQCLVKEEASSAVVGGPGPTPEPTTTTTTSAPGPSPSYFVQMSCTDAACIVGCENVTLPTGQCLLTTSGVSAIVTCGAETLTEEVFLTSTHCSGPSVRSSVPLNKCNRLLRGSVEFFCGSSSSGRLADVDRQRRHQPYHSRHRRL
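Enzyme 1.5 nM, Z-FR-AMC 2 uM, NaOAc 100 mM pH 5.5, DTT 5 mM, Triton X-100 0.01%; 15 min RT compound preincubation; kinetic ex360/em450, 60 s delta.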
RE007 growth inh: less growth of the S. pombe RE007 Vpr strain | Potency, µM (titrated, usually from 92.2 µM), without a hit: at the top dose activity change, negative = less growth | 360,000 compounds, 0.21% hits | S. pombe RE007 Vpr strain, BacTiter-Glo ATP luminescence, 24 h; control for the full effect not named in the record | AID 651644; active = well fitted falling curve with a large enough effect; inconclusive = small, poorly fitted or top-dose-only effect; inactive = no such curve, though single readings can be large or run the other way;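 also: % is scaled to controls: 0 for no effect and ±100 for the full control effect; nearly all actives have a fitted effect of over 50% in size; the assay follows cell death caused by Vpr and the record does not say whether a fall means rescue or toxicity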
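Fission yeast strain RE007, carrying one chromosomally integrated HIV-1 vpr copy, was seeded at OD 0.01 in PMG+AL medium with 23 nL pinned compound. After 24 h at 30 °C and 99% humidity, viability was read by BacTiter-Glo luminescence.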
2A StopGo: lowers the luciferase signal of an FMDV 2A StopGo reporter | human cells with a luciferase reporter of 2A StopGo recoding; control for the full effect not named in the record | Potency, µM (titrated, usually from 57.9 µM), for the others: top-dose signal change, negative = less light | 410,000 compounds, 1.2% hits | AID 1159524; active = well fitted falling curve with a large enough effect; inconclusive = small, poorly fitted or top-dose-only effect; inactive = no such curve, though single readings can be large or run the other way; tested in HEK293T cells; also: % is scaled to controls: 0 for no effect and ±100 for the full control effect; nearly all actives have a fitted effect of over 45% in size; luciferase light after 4 h
Cruzain noTriton: cruzain (T. cruzi) inhibition without detergent | 200,000 compounds, 2.3% hits | AID 1476 | purified cruzain, Z-FR-AMC fluorescence, no detergent | Potency, µM, without a hit: max response, negative = inhibition, usual class: inhibitors | P25779;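 also: plate controls were enzyme without inhibitor for no effect and buffer without enzyme for full effect; nearly all actives have a fitted effect of over 40% in size; top concentration of the series not given in the record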
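Purified cruzain at 1.5 nM, pre-incubated 15 min with compound at room temperature in 100 mM sodium acetate pH 5.5, 5 mM DTT, 0.00005% Triton X-100. Reaction started with 2 uM Z-FR-AMC; AMC fluorescence increase over 60 s gives rate.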
Marburg entry inh: blocks Marburg virus binding to or entry into cells; Marburg virus pseudotyped entry inhibition, cell reporter; control for the full effect not named in the record; about a third of the inactives were read at about 46 µM; Potency, µM (series often up to 37.8 µM), for the others: at the highest dose activity change, negative = inhibition, actives largely listed as inhibitors; 300,000 compounds, 1.8% hits; AID 540276; active = well fitted inhibition curve with a large enough effect; inconclusive = small, poorly fitted or top-dose-only effect, or effect the other way; inactive = flat fitted curve, though single readings scatter; tested in HEK293 cells; about a fifth of its hits are not listed in these tables; also: % is scaled to controls: 0 for no effect and ±100 for the full control effect; luciferase read-out
The depositor's hits bear a star; ? = inconclusive; · = not tested or not shown; & = joins results of further samples; [ ] = dose if it differs, or a comment. Unless noted, calls follow the shape of the dose curve; as a rule, active = well fitted curve in the direction sought with a large enough effect; inconclusive = small, poorly fitted or top-dose-only effect, or another doubt; inactive = no such curve, though single readings can be large; an effect the other way counts as inactive or inconclusive. Potency is read from the fitted curve at half-maximal effect.

compound	Lassa entry inh	NS1 function inh	SARS PLpro yeast	Cruzain inh Det	RE007 growth inh	2A StopGo	Cruzain noTriton	Marburg entry inh
COc1cc(Cn2c(=O)oc3ccc(C)cc32)ccc1OC(C)C	3%	-32%	20%	-7.9%	1%	?	18%	18%&18%
CCCCOc1ccc(NC(=O)c2cc3c(n(-c4ccc(Cl)cc4)c2=O)CCCC3=O)cc1	-5%[46.1 µM]	·	·	-1.5%	·	-25%	7%	12%[46.1 µM]
COc1cccc(C(=O)NCC(=O)N/N=C/c2cn[nH]c2-c2ccccc2)c1	-1%[46.1 µM]	·	-3%	·	0%	-13%	·	6%[46.1 µM]
O=C(/C=C/c1ccco1)N1CCN(c2ncccn2)CC1	?	4%	-4%	-3.0%	-9%	35%[activator]	4%	?
CN(C)c1cc(Cl)c2nonc2c1N	-2%[46.1 µM]	11%	-3%	·	-12%	-20%	·	?
CCOC(=O)c1c(C)[nH]c(C)c1S(=O)(=O)N1CCC(C(=O)NCc2ccccc2)CC1	-9%[46.1 µM]	·	·	1.3%	·	23%	-5%	·
O=C(CCn1c(=O)oc2ccc(Cl)cc21)N1CCN(Cc2ccccc2)CC1	·	-1%	2%	·	1%	-11%	·	·
O=C(OCc1ccccc1F)c1ccc2c(c1)-c1ccccc1C2=O	2.1µM*	6%	-5%	0.3%	5%	64%[activator]	-21%	14%
COc1ccc(CCNC(=O)C2CCN(C(=O)c3ccc(C(C)(C)C)cc3)CC2)cc1OC	·	-3%	4%	·	8%	14%	·	·
O=C(Nc1ccc2c(c1)OCO2)c1ccc(=O)[nH]n1	·	4%	1%	·	12%	1%	·	·
O=C(Cn1nc(-c2ccc(Cl)cc2)ccc1=O)NCCCN1CCN(Cc2ccccc2)CC1	-17%	9%	1%	-3.9%	-12%	0%	-4%	?
CC(C)N1CC(O)=C(c2ccccc2)C1=N	20%	2%	2%	0.5%	-1%	·	-7%	-3%
CCOC(=O)C1=C(c2ccccc2)NC(SC)=C(C#N)C1c1ccco1 (stereo unspecified)	-24%	0%	4%	-7.2%	-10%	-29%	10%	?
CC(Oc1cc(Cl)ccc1Cl)C(=O)N/N=C\c1ccnn1C (stereo unspecified)	0%	-1%	6%	-1.7%	21%	-17%	1%	8%
O=C(CSc1ncccn1)NN=C1CCCCCC1	-3%	2%	15%	-0.8%	18%	-8%	14%	-1%
Cn1c(=S)[nH]c(=O)c2ncc(=O)[nH]c21	12%	1%	0%	·	1%	11%	·	?
Cc1ccc2[nH]c3c(=O)n(CC(=O)N(CCN(C)C)Cc4ccccc4)ncc3c2c1	-17%[46.1 µM]	·	·	-6.2%	·	0%	-10%	·
CCOc1ccc(CN=C(N)N=C(N)N)cc1Cl	-19%	3%	2%	-0.3%	0%	0%	4%	?
OCCOCCOc1cccc2[nH]ccc12	17%[46.1 µM]	6%	0%	·	4%	6%	·	?
CC(C)OC(=O)c1cccnc1SCC(=O)Nc1ccc(C(F)(F)F)cc1Cl	26%[46.1 µM]	·	·	1.2%	·	8%	0%	·
O=C1N=C(N2CCN(c3ccccc3)CC2)S/C1=C/c1cccs1	-1%	9%	-17%	-16%	5%	14%	-23%	16%[46.1 µM]
Cc1ccc2c(=O)c(C(=O)c3ccccc3)cn(CC(=O)Nc3ccccc3)c2n1	27%[46.1 µM]	·	·	0.2%	·	-10%	-10%	·
O=C(CNS(=O)(=O)c1cccs1)N1CCCCC1	6%[46.1 µM]	1%	2%	·	4%	5%	·	5%[46.1 µM]
O=C(NCCOc1ccccc1)C(c1ccccc1)c1ccccc1	·	5%	0%	-5.0%	·	-20%	-3%	0%
CC(Sc1cccc[n+]1[O-])C(=O)Nc1ccc([N+](=O)[O-])cc1Cl (stereo unspecified)	6%[46.1 µM]	·	1%	·	7%	-2%	·	-3%[46.1 µM]
COc1cc(OC)c(NC(=O)CCNS(=O)(=O)c2cc(Br)cnc2N)cc1Cl	-5%	-3%	4%	6.1%	10%	0%	-5%	0%&-4%
COc1cccc(/C=N/NC(=O)C(=O)NCc2ccco2)c1O	-19%	-4%	0%	6.3%	-8%	42%[activator]	-9%	-24%
CNC(=O)C12CC3CC(CC(Cl)(C3)C1)C2	-11%	4%	-12%	-0.2%	0%	-17%	-3%	4%
CC(Cc1nnc(N)s1)c1ccccc1 (stereo unspecified)	·	3%	0%	·	-4%	-3%	·	·
COc1ccc(Cc2nc3ccc(C(=O)N(C)Cc4cc(C)[nH]n4)cc3o2)cc1OC	·	-6%	4%	·	0%	-21%	·	·
CN(CC(=O)Nc1cccc(F)c1)C(=O)c1cc([N+](=O)[O-])ccc1N1CCCCC1	-4%[46.1 µM]	·	-2%	·	-2%	0%	·	?
Cc1ccc(C)c(NC(=O)CNS(=O)(=O)c2ccccc2)c1	-22%	-8%	2%	6.0%	-22%	-13%	-3%	0%
Cc1ccc(OCC(=O)N2CCCC(CCC(=O)N(C)CCc3ccccn3)C2)cc1 (stereo unspecified)	·	-2%	0%	·	1%	-2%	·	·
O=C(O)c1nc(N2CCOCC2)nc(N2CCOCC2)n1	25%	4%	-4%	0.6%	2%	·	8%	23%
Cc1ccc(NC(=O)CC2S/C(=N/c3nccs3)N(C)C2=O)cc1C (stereo unspecified)	-18%	3%	-4%	0.2%	4%	7%	-26%	-23%
CC1=NN(Cc2c[nH]c3ccccc23)C(C)(C)C1	-11%[46.1 µM]	2%	-1%	·	-22%	-8%	·	3%[46.1 µM]
Cc1n(Cc2ccccc2)c2cc([N+](=O)[O-])ccc2[n+]1Cc1ccccc1	·	5%	-5%	·	-18%	-2%	·	·
Cc1ccccc1-c1c(C)oc2cc(O)ccc2c1=O	15%	-48%	-21%	-7.3%	-11%	·	5%	-11%
C=CCn1c(O)c(C(C)=O)c(=O)[nH]c1=O (tested in a mixture with another compound)	0%	3%	0%	·	0%	2%	·	7%
Cc1ccc(NS(=O)(=O)c2c(C)nc3sccn3c2=O)cc1C	·	0%	3%	·	3%	10%	·	·
NCCc1nnc(SCc2c(Cl)cccc2Cl)o1	·	0%	0%	·	14%	-17%	·	·
Cc1ccc(S(=O)(=O)N2CCN(Cc3ccccc3)CC2)c(C)c1NS(C)(=O)=O	-36%[46.1 µM]	·	·	-1.0%	·	-17%	1%	·
CCOc1ccc(CCNC(=O)CCc2nnc3ccc(N4CCCC4)nn23)cc1OCC	·	9%	-6%	·	6%	-6%	·	·
COc1ccc(-c2noc(CSc3nnc(-c4ccc(Cl)cc4)n3C)n2)cc1OC	-16%[46.1 µM]	·	·	-7.2%	·	-3%	-2%	-80%[46.1 µM]
Cc1ccc(N(CC(=O)NCC2CCCO2)C(=O)CNS(=O)(=O)c2ccc(Cl)cc2)cc1 (stereo unspecified)	?	4%	1%	·	4%	-10%	·	?
Cc1occc1C(=O)Nc1ccc2c(c1)OCCO2	6%	-43%	-17%	4.7%	-15%	18%	-5%	?
Cc1ccc(C(C)C)c(OCC(=O)Nc2ccccc2N2CCN(C)CC2)c1	10µM*	3%	6%	6.4%	1%	32µM*	10%	?
COc1ccc(NS(=O)(=O)c2ccc(C)c(C(=O)NNC(=O)c3csc(N4CCOCC4)n3)c2)cc1	-13%	·	1%	·	2%	-17%	·	?
Cc1ccc(CCNC(=O)CCSCc2ccccc2F)cc1	13%[46.1 µM]	·	·	1.1%	·	-1%	-11%	·
CCCN(CCC)Cc1c(C(=O)N/N=C/CCc2ccccc2)nnn1-c1nonc1N	?	8%	-14%	·	-18%	23%	·	-29%[46.1 µM]

(more compounds)
compound	Lassa entry inh	NS1 function inh	SARS PLpro yeast	Cruzain inh Det	RE007 growth inh	2A StopGo	Cruzain noTriton	Marburg entry inh
O=C(NCCCNCc1ccccc1)c1ccc(/C=N/O)nc1	5%	0%	2%	1.3%	-16%	6%	-3%	-10%
C=CCOc1cccc(C2C(C(=O)c3cc4ccccc4o3)=C(O)C(=O)N2c2cc(C)on2)c1 (stereo unspecified)	·	5%	1%	·	0%	-16%	·	·
CCOc1cccc(SCc2noc(C(=O)NC(C)C)c2C(=O)O)c1	·	12%	0%	-3.4%	5%	-24%	9%	·
Cc1nn(CC(=O)NCc2ccccc2)c(C)c1[N+](=O)[O-]	-19%	7%	7%	1.8%	8%	-8%	-7%	6%
COc1ccc(C(=O)Nc2ccc3[nH]ccc3c2)cc1OC	?	·	·	·	6%	55%[activator]	·	?
Cc1ccc(C(C(=O)NC(C)(C)C)N(Cc2cccnc2)C(=O)C(=O)NC2CCCCC2)o1 (stereo unspecified)	11%	·	1%	·	8%	37%[activator]	·	-2%[46.1 µM]
N#CCn1c(Cc2ccccc2)nc2ccccc2c1=O	·	2%	-7%	·	7%	8%	·	·
COCCCn1c(SCC(=O)N2CCOCC2)nnc1-c1ccco1	12%[46.1 µM]	-34%	1%	·	7%	2%	·	5%[46.1 µM]
COc1ccccc1NC(=O)NC(=O)c1ccccc1	-5%[46.1 µM]	-4%	-2%	·	22%	10%	·	?
CCc1nc(N)c(C#N)c(-c2cccc3ccccc23)c1C	4%	9%	4%	0.0%	16%	-10%	?	2%[46.1 µM]
O=C(C(=O)N1CCc2ccccc2C1)c1cn(CC(=O)N2CCOCC2)c2ccccc12	7%	-8%	-15%	-5.6%	-17%	10%	?	13%
CC(C)COC(=O)C1C(=O)CC(C)(O)C(C(=O)OCC(C)C)C1c1cccnc1 (stereo unspecified)	8%	-3%	1%	5.0%	2%	-17%	-2%	35%&7%
COc1ccc(NC(=O)CCCn2c(=O)c3sccc3n(Cc3cccc(C)c3)c2=O)cc1	7%	-4%	2%	-6.0%	12%	-9%	12%	20%
CCN(CC)C(=O)c1sc(NC(=O)Cc2ccccc2)c(C#N)c1C	?	-14%	-34%	5.7%	-3%	-21%	-7%	-8%
O=C(CN(Cc1ccco1)C(=O)c1nsc(Cl)c1Cl)NC1CCCCC1	0%[46.1 µM]	-2%	0%	·	4%	-17%	·	-5%[46.1 µM]

Random draw from the library; 4.7% or so of the library scored in one or more.
